# Choline anaer gr: blocks anaerobic gram-negative growth on choline | Gram-negative bacterium anaerobic choline minimal medium, absorbance growth; hits give low values; many inactives read as strong as hits in the columns shown | calls only | 55,000 tested, 0.2% active | AID 1963822;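 active = growth z-score on choline under -2 at 7 or 20 h with little or no fall on glycerol, limits in tiers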;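 also: stock transfer was 300 nL into about 50 µL; the organism is E. coli; final concentration not given here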
# Choline anaer gr early: recorded beside Choline anaer gr, whose call it bears; z-score; measured here: choline growth z-score, timepoint 1;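 score of optical density at 7 h as mean of two plates; lower means less growth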
# * marks the source's active call; other numbers are inactive results; i = inactive; & = joins results of further samples.
Structure | Choline anaer gr | Choline anaer gr early
CCCN1CCN(C(=O)C2CCN(C3=NS(=O)(=O)C(c4ccc(OC)cc4)=C3C)CC2)CC1 | i | -2
CCCCCc1nnc(NC(=O)C2CC(=O)N(CCc3c[nH]c4ccc(C)cc34)C2)s1 (stereo unspecified) | i | -1
COC(=O)c1ccccc1NC(=O)c1c(-c2ccccc2)c(-c2ccccc2)n[nH]c1=O | i | 0.11
Fc1ccc(-c2noc(CCc3nnc4ccc(N5CCN(C6CCCCC6)CC5)nn34)n2)cc1 | i | -0.03
Cc1cc(C)c(S(=O)(=O)Nc2noc3ccccc23)c(C)c1 | i | -0.69
COc1cccc(-c2noc(N3CCCCC3)n2)c1 | i | -0.26
CCCNc1cc(C)nc2c(-c3ccc(F)cc3)cnn12 | i | -0.87
C=CCN1CCN(C2CCN(S(=O)(=O)c3ccc(OCC)cc3)CC2)C(=O)C1=O | i | -0.42
Cc1ccc(C)c(-n2ncc3c(N4CC(C)OC(C)C4)ncnc32)c1 (stereo unspecified) | i | 1.1
Cc1[nH]nc2c1C(c1ccc3c(c1)OCO3)CC(=O)N2 (stereo unspecified) | i | -1.6
Cc1ccn2c(=O)cc(COc3ccc(NC(=O)Nc4cccc(Cl)c4)cc3)nc2c1 | i | -0.58
O=C(O)c1ccc(S(=O)(=O)c2ccccc2)nc1 | i | 0.32
CCc1ccc(N2C(=O)CC(c3ccc(OC)c(OC)c3)CC2=O)cc1 | i | -1.6
Cc1ccccc1-c1ncccc1C(=O)N1CCC(C(=O)N2CCC(Cc3ccccc3)CC2)CC1 | i | 0.2
Cc1ccc(CNC(=O)N2CCC[C@@H]2C(=O)NCc2csc(-c3ccccc3)n2)cc1 | i | -0.71

# Going on with the list.
Structure | Choline anaer gr | Choline anaer gr early
CCCn1c(=O)c2[nH]c(-c3ccccc3)nc2n(CCC)c1=O | i | 0.03
O=C1c2oc3ccccc3c(=O)c2C(c2cccnc2)N1c1ccccn1 (stereo unspecified) | i | 0.86
COC(=O)c1sccc1NC(=O)Cn1c(C)cc(C)c(-c2nc(-c3ccccc3)no2)c1=O | i | -0.03
COc1cccc(NC(=O)Nc2cc(Cl)ccc2OCc2cc(=O)n3c(ncn3C(C)C)n2)c1 | i | -1.3
CC1=NS(=O)(=O)c2cc(S(=O)(=O)CC(=O)Nc3cc(Cl)ccc3C)ccc2N1 | i | -0.12
O=C(Nc1ccc(N2CCN(c3ccccn3)CC2)cc1C(=O)O)c1ccccc1Cl | i | -0.76
COc1cc(OC)cc(C(=O)N(C)CCc2noc(C(=O)NCc3ccccc3)n2)c1 | i | -0.27
Cc1[nH]c(C)c(S(=O)(=O)N2CCC(C(=O)NC3CCC(C)CC3)CC2)c1C(=O)N1CCCCC1 (stereo unspecified) | i | 0.62
Cc1ccc(C)c(NC(=O)NCC(c2cccnc2)c2cn(C)c3ccccc23)c1 (stereo unspecified) | i | -0.01
NCCCCN | i | 0.55
CCCCCCC(=O)Nc1ccc2nc3c(=O)[nH]c(=O)[nH]c3nc2c1 | i | -0.02
Cc1nn(-c2ccccc2)c(N2CCC(C(=O)NCc3cccnc3)CC2)c1-n1c(C)ccc1C | i | -0.02
CCc1nc(-c2csc(S(=O)(=O)N3CCC(C(=O)N4CCOCC4)CC3)c2)no1 | i | -0.15
Cc1ccc(-c2nc3nc(C)c(CC(=O)N4CCCC4)c(C)n3n2)cc1 | i | 0.04
CCc1ccccc1NC(=O)CCCN1C(=O)C(c2ccccc2)Oc2cccnc21 (stereo unspecified) | i | 0.57

# Later entries
Structure | Choline anaer gr | Choline anaer gr early
CN1C(=O)C(c2c(-c3ccccc3)[nH]c3c2c(=O)[nH]c(=O)n3C)c2ccccc21 (stereo unspecified) | i | 0.68
Cc1ccc(-n2nc(C(=O)N3CCN(c4ncccn4)CC3)c3ncn(C)c(=O)c32)cc1 | i | 0.16
CCCCOc1ccccc1C1CC(=O)Nc2c1c(C)nn2-c1ccc2nnc(C)n2n1 (stereo unspecified) | i | -0.62
CCN(c1nc2nc(C)c(Cl)c(C)n2n1)S(=O)(=O)c1ccc(C)cc1 | i | -1.7
CC(C)(C)C(=O)N1CCCN(S(C)(=O)=O)CC1 | i | 0.14
CCOC(=O)C(C)(C)Oc1ccc(Cl)cc1 | i | -1.3&0.06&-0.53&-0.42
O=C(Nc1ccc2c(c1)CCC2)c1sc2ncccc2c1-n1cccc1 | i | 0.13
O=C1Nc2ccccc2C1Cc1ccc(F)cc1 (stereo unspecified) | i | -0.25
Cc1ccc(S(=O)(=O)N2CCCC2c2nc(-c3ccc(F)cc3)no2)cc1Cl (stereo unspecified) | i | -0.83
CC1CCN(S(=O)(=O)c2cccn(CC(=O)OC(C)(C)C)c2=O)CC1 | i | 0.49
O=C(NC1CCCC1)c1ccc2c(c1)nc1n2CCCC1 | i | 0.18
CN(C)c1nc2ncn3c(=O)n(CC(=O)Nc4ccc(Cl)cc4)nc3c2s1 | i | -1.4
Cn1c(=O)[nH]c(=O)c2c3c(cnc21)C(=O)CC(C)(C)C3 | i | 0.75
CC(C)(C)c1ccc(S(=O)(=O)Nc2cc3[nH]c(=O)[nH]c3cc2Cl)cc1 | i | 0.93
Cc1cccc2cc3c(nc12)N(C(=O)C1CC1)CC3 | i | 0.96

# (list continues)
Structure | Choline anaer gr | Choline anaer gr early
CC(=O)Nc1cccc(NC(=O)Cc2csc(NC(=O)Nc3cccc(Cl)c3)n2)c1 | i | 0.18
Cc1cc(C)cc(NC(=O)c2ccc(-c3noc(C4CCN(C(=O)c5ccccc5)CC4)n3)cc2)c1 | i | 0.65
O=C(NCc1noc(C2CCCC2)n1)c1ccccc1 | i | 0.84
O=S(=O)(c1cccc(C(F)(F)F)c1)N1CCC(N2CCOCC2)CC1 | i | -0.22
CCOc1ccc2nc(NC(=O)C3CC(=O)N(c4cccc(NC(C)=O)c4)C3)sc2c1 (stereo unspecified) | i | -0.77
O=C(CN1C(=O)CCc2cc(S(=O)(=O)N3CCCC3)ccc21)NCc1ccc(Cl)cc1 | i | 0.34
O=C(CCc1cn(-c2ccccc2)nc1-c1ccc2c(c1)OCO2)NC1CCCCC1 | i | 0.57
Cc1noc2c1C(c1ccc(F)cc1)C1=C(CC(c3ccc(O)cc3)CC1=O)N2 (stereo unspecified) | i | 0.19
CCCCCCC(=O)OC1CC(C)(C)NC(C)(C)C1 | i | 0.3&-0.83
Cc1c(C2CCN(S(=O)(=O)c3cnc[nH]3)CC2)c2ccccc2n1Cc1c(F)cccc1Cl | i | 0.33
Cc1nc(-c2cc(S(=O)(=O)Nc3ccc(Cl)cc3F)c(C)s2)sc1C | i | 0.75
O=C1CC(c2ccccc2)Cc2[nH]c(=O)c(C(=O)NCc3ccccc3)cc21 (stereo unspecified) | i | 0.2
Oc1cc(O)c2c(c1)O[C@H](c1ccc(O)c(O)c1)[C@@H](O)C2 | i | -0.05
COc1ccccc1NC(=O)c1sc2nc3n(c(=O)c2c1C)CCCCC3 | i | 0.17
COc1ccc(N2C(=O)CCS2(=O)=O)cc1S(=O)(=O)NC1CCCC1 | i | -1.2

# No new results follow: an excerpt of the list.
Structure | Choline anaer gr | Choline anaer gr early
COc1ccccc1NC(=O)c1sc2nc3n(c(=O)c2c1C)CCCCC3 | i | 0.17
COc1ccc(N2C(=O)CCS2(=O)=O)cc1S(=O)(=O)NC1CCCC1 | i | -1.2

# Later entries:
Structure | Choline anaer gr | Choline anaer gr early
CC(=O)Nc1c(C)nn(-c2ccccc2)c1N1CCC(C(=O)Nc2ccc(Cl)cc2)CC1 | i | 0.11
Cc1c(C(=O)NC2CCCCC2)nnn1-c1ccc2noc(-c3ccc(Br)cc3)c2c1 | i | -1.3
O=C(c1nc(-c2csc(S(=O)(=O)N3CCOCC3)c2)no1)N1CCCC1 | i | -1.4
O=C(C1CC(=O)N(c2cccc(Cl)c2)C1)N1CCC(c2nc(-c3ccccc3)no2)CC1 (stereo unspecified) | i | 0.44
CC1CC(=O)N(Cc2ccccc2)c2ccccc2N1 (stereo unspecified) | i | -0.95
CC(C)NC(=O)CSc1nccn2nc(-c3ccccc3)cc12 | i | 1.9
O=C(NCC1CC1)C1CCN(c2ncnc3c2oc2ccccc23)CC1 | i | -0.6
COc1ccc(-c2nnc(SCc3ccc(Br)cc3)o2)c(OC)c1 | i | 1.1
CCn1cnc(S(=O)(=O)N2CCCC(C(=O)NC3CCC(C)CC3)C2)c1 (stereo unspecified) | i | -0.47
Fc1ccc(C2CCCN2Cc2ccc(C(F)(F)F)cc2)cc1 (stereo unspecified) | i | -0.38
O=C(C1CC1)N1CCCc2cc(NS(=O)(=O)CCc3ccccc3)ccc21 | i | 0.08
Cc1ccc(-c2nnc(-c3cccnc3N3CCCC3)o2)cc1 | i | -0.01
Cc1ccc(C)c(NC(=O)c2cc(CN3CCCC3)on2)c1 | i | -0.47
COc1ccc(N2CC(c3nnc(NC(=O)Cc4ccc(F)cc4)o3)CC2=O)cc1 (stereo unspecified) | i | 0.48
COc1ccc(Cl)cc1NS(=O)(=O)c1cc(-c2nc(C)cs2)sc1C | i | 1

# Further compounds:
Structure | Choline anaer gr | Choline anaer gr early
Cc1ccc(S(=O)(=O)N(C)CCc2noc(-c3ccccc3F)n2)c2nsnc12 | i | -1.5
CC(C)CNc1cc(C(C)C)nc2nc(-c3cccnc3)nn12 | i | -0.9
Cc1sc(-c2noc(C3CC3)n2)cc1S(=O)(=O)N1CCC(C(=O)Nc2ccc3c(c2)OCO3)CC1 | i | 0.67
Cn1ccc2c(OCC(=O)N3CCCCC3)cccc2c1=O | i | -0.66
Cc1ccc(C(=O)CN2C(=O)c3ccccc3OC(C)C2=O)cc1 (stereo unspecified) | i | -1.1
CCC(C(=O)Nc1ccc(Cl)cn1)N1CCN(Cc2ccc(F)cc2)C(=O)C1=O (stereo unspecified) | i | 0.56
CCn1c(SCc2nc(-c3ccccc3)oc2C)nc(=O)c2c(C(=O)OC)cc(C3CC3)nc21 | i | 1.2
CCOc1ccc(CC(=O)Nc2ccc(N3CCCS3(=O)=O)cc2)cc1 | i | -0.34
CCc1nnc2sc(-c3ccc(CNC(=O)c4sc5ccccc5c4Cl)cc3)nn12 | i | 0.76
O=C(c1nnc(-c2cccc(Cl)c2)o1)N1CCCC1 | i | -0.32
CCOc1ccc(NC(=O)c2cc(=O)c3cc(Cl)c(C)cc3o2)c2cccnc12 | i | 0.71
Fc1ccccc1-c1nn2c(-c3cccnc3)nnc2s1 | i | 0.38
CCCNC(=O)CSc1nnc(-c2ccoc2C)o1 | i | -1
CCCN(CCC)C(=O)CCS(=O)(=O)c1ccc2c(c1)NC(=O)CO2 | i | 0.45
O=C(CCN(CCCN1CCCC1)C(=O)c1cccc(Br)c1)N1CCNCC1 | i | 0.37

# Further results follow:
Structure | Choline anaer gr | Choline anaer gr early
CCCCOc1cccc(C(=O)Oc2cccc(-n3cnnn3)c2)c1 | i | 0.82
Cn1c(C(=O)N2CCN(c3cccc(Cl)c3)CC2)cc2c(=O)oc3ccccc3c21 | i | 0.23
CN(CCc1noc(C(=O)NCc2ccccc2)n1)C(=O)NC1CCCC1 | i | -0.29
Cc1ccc(C(=O)Cn2nc3n(CC(C)C)c(=O)c4ccc(C(=O)NC(C)C)cc4n3c2=O)c(C)c1 | i | 0.89
Cc1ccc(NCc2cc(=O)n3[nH]c(-c4ccc(C(C)(C)C)cc4)nc3n2)c(C)c1 | i | -0.77
COCCn1c(-c2cccc(OC)c2)cnc1NC(=O)NCC(=O)OC | i | -0.34
O=C1CC(c2ccccc2)=Nc2ccccc2N1Cc1ccccc1F | i | 0.86
CC1(C(=O)NC2CCCC2)Cn2c(cc3ccccc32)C(=O)N1c1ccc2c(c1)OCCO2 (stereo unspecified) | i | -0.91
Fc1ccc(-c2cc3c(N4CCN(c5ccccc5F)CC4)nccn3n2)cc1 | i | 0.9
Cn1nc(C(=O)NCc2ccccc2)c2c1CCN(C(=O)c1ccccc1Cl)C2 | i | 0.69
Cc1cc(=O)n2c(-c3ccccc3)csc2n1 | i | 0.16
CCOC(=O)c1c(NC(=O)CSc2nnc(CNC(=O)c3cccc(F)c3)n2C)sc2c1CCCCC2 | i | 2.4
COc1ccc(NC(=O)Cn2ncn3nc4c(c3c2=O)CCCC4)cc1 | i | 0.94
CC1CCN(C(=O)Cn2c(=O)c3ccccc3n3c(=S)sc(-c4cccc(F)c4)c23)CC1 | i | -0.15
CC(=O)NCc1csc(C2CCCN(S(=O)(=O)C(C)C)C2)n1 (stereo unspecified) | i | -1.2

# The list goes on.
Structure | Choline anaer gr | Choline anaer gr early
CC(=O)Nc1ccc(-c2noc(C3CCCN(C(=O)c4cc(C)cc(C)c4)C3)n2)cc1 (stereo unspecified) | i | -1.5
CNc1cc(C)nc2c(-c3ccc(C)cc3)c(C(F)(F)F)nn12 | i | -0.03
CN(C)c1ccc(CNC(=O)c2cc3c(-c4ccc(Cl)cc4)nn(C)c3s2)cc1 | i | 1.3
CN(Cc1ccccc1)C(=O)c1cc(=O)nc2sc(N3CCCCC3)nn12 | i | -1.9
CC(C)C(=O)Nc1cc(Cl)ccc1OCc1cc(=O)n2ccsc2n1 | i | -0.15
Cc1ccc(C)c(NC(=O)C2Nc3cc(C)ccc3S(=O)(=O)N2)c1 (stereo unspecified) | i | 1.2
COc1ccccc1C(=O)Nc1cc(-c2ccccc2)nn1-c1ccccc1 | i | 0.76
CCOc1ccc(C2C3=C(CC(c4ccccc4)CC3=O)Nc3onc(C)c32)cc1 (stereo unspecified) | i | -0.37

# One compound at a time (already shown):
# Shown for Cc1ccc(S(=O)(=O)N(C)CCc2noc(-c3ccccc3F)n2)c2nsnc12 → Choline anaer gr: i; Choline anaer gr early: -1.5
# Shown for Cc1ccc(NCc2cc(=O)n3[nH]c(-c4ccc(C(C)(C)C)cc4)nc3n2)c(C)c1 → Choline anaer gr: i; Choline anaer gr early: -0.77

# Screening results: PubChem BioAssay, ICCB-Longwood Screening Facility, Harvard Medical School

# A portion of the library; rates above refer to the full screens.
